Screening results: PubChem, National Center for Advancing Translational Sciences (NCATS)
EPAC1 ag val: Validation qHTS for agonist of cAMP-regulated guanine nucleotide exchange factor 3 (EPAC1). Potency, µM, for inactives: max response, positive = active, hits mostly activators. EPAC1 Rap1b BODIPY-GDP exchange, fluorescence. 16,000 compounds, 1% hits; active = well fitted activation curve with a large enough effect; inconclusive = small, poorly fitted or top-dose-only effect; inactive = no such curve, though single readings can be large or run the other way;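 also: nearly all actives have a fitted effect of over 70% in size; series mostly up to about 76 or 150 µM; scaled to a cAMP control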
Target sequence (O95398 whole entry, looked up): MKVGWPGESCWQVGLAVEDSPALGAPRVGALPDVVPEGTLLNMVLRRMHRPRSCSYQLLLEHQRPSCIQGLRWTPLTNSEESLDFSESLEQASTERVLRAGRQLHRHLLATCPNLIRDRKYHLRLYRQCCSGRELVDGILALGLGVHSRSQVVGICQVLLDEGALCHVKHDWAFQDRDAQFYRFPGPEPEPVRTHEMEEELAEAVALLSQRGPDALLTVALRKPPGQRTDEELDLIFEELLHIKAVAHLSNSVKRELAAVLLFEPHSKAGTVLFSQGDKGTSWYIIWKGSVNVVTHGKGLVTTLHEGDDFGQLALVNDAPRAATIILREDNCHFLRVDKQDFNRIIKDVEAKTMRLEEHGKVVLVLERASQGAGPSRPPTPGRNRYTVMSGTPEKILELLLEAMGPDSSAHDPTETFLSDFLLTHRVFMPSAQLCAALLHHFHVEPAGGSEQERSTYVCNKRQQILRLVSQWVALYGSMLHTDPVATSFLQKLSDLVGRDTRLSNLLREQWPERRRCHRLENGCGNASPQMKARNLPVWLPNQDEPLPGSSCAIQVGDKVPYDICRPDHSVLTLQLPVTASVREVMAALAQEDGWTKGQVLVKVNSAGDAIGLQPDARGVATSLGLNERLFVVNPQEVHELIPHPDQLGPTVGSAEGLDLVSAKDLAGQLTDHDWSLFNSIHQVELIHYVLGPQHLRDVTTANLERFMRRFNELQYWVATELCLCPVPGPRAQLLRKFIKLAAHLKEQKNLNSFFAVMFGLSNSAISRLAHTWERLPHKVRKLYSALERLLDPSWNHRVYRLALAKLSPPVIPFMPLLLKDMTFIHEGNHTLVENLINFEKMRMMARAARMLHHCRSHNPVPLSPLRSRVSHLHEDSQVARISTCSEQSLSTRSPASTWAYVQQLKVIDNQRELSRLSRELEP
* marks the source's active call; other numbers are inactive results; ? = inconclusive; & = joins results of further samples; [ ] = dose if it differs, or a comment. % is scaled to controls: 0 for no effect and ±100 for the full control effect; potency is read from the fitted curve at half-maximal effect. Not all compounds are listed; rates above refer to the full screens.

The first 6 entries, ahead of the listing:
cpd	molecule	EPAC1 ag val
1	CC(C)(C)N1[C@@H](CC(=O)O)c2cc(C(F)(F)F)ccc2S1(=O)=O	22%
2	CCCCCCCCCCCCCCCCCC(=O)OC(CC(=O)O)C[N+](C)(C)C (stereo unspecified)	-42%[inhibitor]
3	N[C@@](C(=O)O)(c1ccc(P(=O)(O)O)cc1)C1CC1	7%
4	O=C(NCCc1nnc2n1CCN(Cc1ccccn1)CC2)c1ccc(F)cc1	17%
5	O=C(NCC1Cc2cc(-c3cnc4ccccc4c3)cc(F)c2O1)c1cnsn1 (stereo unspecified)	-7%
6	CCC[C@@H]1C[C@@H](C(=O)N[C@@H]([C@H]2O[C@H](SC)[C@H](O)[C@@H](O)[C@H]2O)[C@H](C)Cl)N(C)C1	-18%

This part in full, repeating the preview:
cpd	molecule	EPAC1 ag val
1	CC(C)(C)N1[C@@H](CC(=O)O)c2cc(C(F)(F)F)ccc2S1(=O)=O	22%
2	CCCCCCCCCCCCCCCCCC(=O)OC(CC(=O)O)C[N+](C)(C)C (stereo unspecified)	-42%[inhibitor]
3	N[C@@](C(=O)O)(c1ccc(P(=O)(O)O)cc1)C1CC1	7%
4	O=C(NCCc1nnc2n1CCN(Cc1ccccn1)CC2)c1ccc(F)cc1	17%
5	O=C(NCC1Cc2cc(-c3cnc4ccccc4c3)cc(F)c2O1)c1cnsn1 (stereo unspecified)	-7%
6	CCC[C@@H]1C[C@@H](C(=O)N[C@@H]([C@H]2O[C@H](SC)[C@H](O)[C@@H](O)[C@H]2O)[C@H](C)Cl)N(C)C1	-18%
7	OCC(O)CO	-2%
8	COC(=O)Nc1nc2ccc(Sc3ccccc3)cc2[nH]1	-33%&-2%[inhibitor]
9	NO	4%
10	COc1ccc(-n2c(=O)c(-c3ccc(Cl)cc3)nc3cnc(N(C)C)nc32)cc1	100µM*
11	COc1cc2c(cc1OC)[C@@H](c1ccccc1)CN(C)CC2	-11%
12	O=c1c(-c2cc(F)cc(F)c2)nc2cnc(N3CCOCC3)nc2n1C[C@H]1CCCO1	-1%
13	COC(=O)C1=C(C)NC(C)=C(C(=O)OC(C)C)C1c1cccc2nonc12 (stereo unspecified)	-11%&-13%
14	CC(=O)O[C@]1(C(C)=O)CC[C@H]2[C@@H]3CCC4=CC(=O)CC[C@]4(C)[C@@]3(F)[C@@H](O)C[C@@]21C	1%
15	CCCC(C(=O)OCCN(CC)CC)(c1ccccc1)c1ccccc1	3%&-21%
16	CN1CCN(c2ncc3nc(-c4cccc(C#N)c4)c(=O)n(CCC#N)c3n2)CC1	10%
17	COC(=O)C[C@H]1c2cc(F)ccc2S(=O)(=O)N1Cc1ccccc1OC	-29%
18	Cc1cc(Cn2cnc3c2C[C@@H](C(=O)O)N(C(=O)C(c2ccccc2)c2ccccc2)C3)ccc1N	-3%
19	Cc1nc2ccc(CN(C)c3ccc(C(=O)N[C@@H](CCC(=O)O)C(=O)O)s3)cc2c(=O)[nH]1	-18%&3%
20	COc1cc(=O)n2c(c1C(=O)NC(C)c1ccco1)CCN(Cc1ccnc3ccccc13)CC2 (stereo unspecified)	-6%
21	COC(=O)c1ccc(CN2CCC3(CCC(CNC(=O)c4ccco4)O3)CC2)cc1 (stereo unspecified)	9%
22	CS(=O)(=O)Nc1cccc(-c2nc(NC3CC3)c3ccccc3n2)c1	-17%
23	NC1(C(=O)O)CC1	6%&11%
24	CN1CC(O)C(O)C(O)C1CO (stereo unspecified)	0%
25	COc1cc(=O)n2c(c1C(=O)NCc1ccco1)CCN(Cc1ccccc1)CC2	5%
26	COCCN(C)C(=O)c1cnn(-c2nccc(-c3cc(OC)ccc3OC)n2)c1C	-11%
27	C[C@@H]([C@H](O)c1ccc(O)cc1)N1CCC(Cc2ccccc2)CC1	6%
28	O=C(O)c1cc(=O)c2c3nc4ccccc4oc-3cc(=O)c2[nH]1	17%
29	O=c1c(-c2ccc(Cl)cc2)nc2cnc(N3CCOCC3)nc2n1Cc1ccc(F)cc1	-5%
30	CCOC(=O)C[C@H]1c2cc(F)ccc2S(=O)(=O)N1C(C)(C)C	22%
31	CNC(=O)[C@H]1O[C@@H](n2cnc3c(NCc4cccc(I)c4)nc(Cl)nc32)[C@H](O)[C@@H]1O	10%
32	FCOC(C(F)(F)F)C(F)(F)F	-4%
33	CCS(=O)(=O)Nc1cc(C(=O)N2CCC[C@H]2CO)c2c(c1)nc(-c1ccccc1)n2C	-4%
34	CCCS(=O)(=O)NCc1c(C)ncc2c1CCN(C(=O)/C=C/c1ccccc1)C2	-6%
35	O=C1O[C@@H]2[C@@H](O)[C@H](O)O[C@@H]2[C@H]1O	5%
36	CC[C@H](C)[C@H](NC(=O)[C@H](Cc1ccccc1)NC(=O)[C@H](C)NC(=O)[C@H](CC(=O)O)NC(=O)[C@H](CCCCN)NC(=O)[C@H](CO)NC(=O)[C@@H]1CCCN1C(=O)[C@@H]1CCC(=O)N1)C(=O)NCC(=O)N[C@@H](CC(C)C)C(=O)N[C@@H](CCSC)C(N)=O	-20%
37	NC(=NCc1ccc(Cl)cc1Cl)NC(=O)c1nc(Cl)c(N)nc1N	-14%&9%
38	FC(F)OC(Cl)C(F)(F)F (stereo unspecified)	35µM*
39	COCC(=O)N1CCC[C@@]2(CCN(C(=O)Nc3cccc(C#N)c3)C2)C1	-47%[inhibitor]
40	NCC1O[C@@H](O[C@H]2C(O)C(O[C@@H]3C(O[C@H]4OC(CO)C(O)C(O)C4N)C(N)CC(N)[C@H]3O)O[C@@H]2CO)C(N)C(O)C1O (stereo partly specified)	18%
41	CC[C@H](C)C(=O)O[C@H]1CCC=C2C=C[C@H](C)[C@H](CC[C@@H]3C[C@@H](O)CC(=O)O3)[C@H]21	2%&-13%
42	OCCCNCc1cc2cc3c(cc2nc1N1CCN(c2cccc(Cl)c2)CC1)OCO3	10%
43	O=S(=O)(c1ccccc1)N1CCC2(CCN(c3ncccn3)CC2)CC1	-40%[inhibitor]
44	CCCCCCCCCCCCCCCCCCO	-33%[inhibitor]
45	COC(=O)C1=COC(O[C@H]2OC(CO)[C@H](O)C(O)C2O)[C@H]2C1C(=O)C[C@@H]2C (stereo partly specified)	-10%
46	COc1cccc(Nc2ncc3ncc(=O)n(Cc4cccs4)c3n2)c1	112µM*
47	O=c1[nH]c(=S)[nH]c(-c2ccccc2)c1Cc1c(O)ccc2ccccc12	-1%
48	Cc1cc(C)nc(S[C@H]2C[C@@H](C(=O)N3CCN(c4ccccc4F)CC3)N(Cc3ccccc3F)C2)n1	20%
49	c1ccc(-c2cccc(N3CC[C@@]4(CCCNC4)C3)c2)cc1	-18%
50	COc1cccc(Cn2c(=O)c(C)nc3cnc(OCc4ccccc4)nc32)c1	?
51	COC(c1ccc2c(c1)CN(C(=O)Cn1nc(C)c3ccccc3c1=O)CCO2)C1CCCCC1 (stereo unspecified)	0%
52	OC[C@H]1O[C@@H](n2cnc3c2NC=NC[C@H]3O)C[C@@H]1O	5%
53	COc1ccccc1C1CN(Cc2cccc(OCCO)c2)Cc2ccccc2O1 (stereo unspecified)	?
54	CC(C)(Cc1c[nH]c2ccccc12)NCC(O)COc1ccccc1C#N (stereo unspecified)	-12%
55	CCOC(=O)c1c(C)cc(O)c(C)c1O	28%
56	COc1ccc(OC)c(/C=C/c2nc3ccccc3nc2C)c1	100µM*
57	COc1ccc(Oc2ncc3nc(-c4cccs4)c(=O)n(Cc4cccc(OC)c4)c3n2)cc1	-49%[inhibitor]
58	COc1ccc(NC(=O)N2CCCC3(CCN(C(=O)c4csnn4)CC3)C2)cc1	-41%[inhibitor]
59	FC(F)(F)c1ccccc1-c1nc(NC2CCNCC2)c2ccccc2n1	-16%
60	CNc1ccc(/C=C/c2ccccc2)cc1	?

Later entries.
cpd	molecule	EPAC1 ag val
61	O=c1c(-c2ccc(Cl)cc2)nc2cnc(N3CCOCC3)nc2n1C1CC1	-61%[inhibitor]
62	O=S1(=O)CCOC[C@H](CC2CCCCC2)N1Cc1cccc(Cl)c1	-37%[inhibitor]
63	N#C[C@H](Cc1ccc(O)cc1)c1ccc(O)cc1	-5%
64	COc1ccc(Oc2ncc3nc(-c4cc(F)cc(F)c4)c(=O)n(C[C@H]4CCCO4)c3n2)cc1	?
65	O=C(N[C@@H]1c2ccccc2C2(CCN(Cc3c(O)ccc4ccccc34)CC2)[C@H]1O)c1ccccc1	-3%
66	CCCN1C[C@H](CSC)C[C@@H]2c3cccc4[nH]cc(c34)C[C@H]21	3%&13%&7%
67	C[C@H](CCC(=O)NCCS(=O)(=O)O)C1CC[C@H]2C3CC[C@@H]4C[C@H](O)CC[C@]4(C)C3C[C@H](O)[C@]12C (stereo partly specified)	-12%
68	COc1ncc2nc(-c3ccc(F)cc3)c(=O)n(CCc3ccccc3)c2n1	-7%
69	CCC1(C)CC(=O)NC1=O (stereo unspecified)	-2%&10%&-13%
70	CCOC(=O)C[C@H]1c2ccccc2S(=O)(=O)N1Cc1cc(OC)c(OC)c(OC)c1	18%
71	N#Cc1ccccc1OCC(O)CNCCNC(=O)Nc1ccccc1 (stereo unspecified)	-9%
72	OC(CN1CCCCC1)c1ccccc1 (stereo unspecified)	-14%
73	O=C(NO)c1ccccc1	-72%[inhibitor]
74	COc1ccccc1-c1cc(Nc2ccn[nH]2)ncn1	-14%
75	C[C@@H]1[C@H](c2ccccc2)OCCS(=O)(=O)N1Cc1ccc(Cl)cc1	-8%
76	C[C@@]1(C2CCCC2)Cc2cc(OCC(=O)O)c(Cl)c(Cl)c2C1=O	2%&-7%
77	COc1ccc(OC)c(CN2CCOc3ccc(C(O)c4cccnc4)cc3C2)c1 (stereo unspecified)	-6%
78	C=C(Br)COC(c1ccco1)[C@H](Cc1ccccc1)NC(=O)OC(C)(C)C (stereo partly specified)	-49%[inhibitor]
79	Cc1ccc(CN2[C@H](C)[C@H](c3ccccc3)OCCS2(=O)=O)cc1	-4%
80	COc1ccc(-c2nc3cncnc3n(-c3ccccc3)c2=O)cc1	-10%
81	COc1ccccc1CCn1c(=O)c(-c2ccccc2)nc2cncnc21	0%
82	Cc1noc(C)c1-c1cncnc1NCCN1CCOCC1	-10%
83	COc1ccc(C(=O)N2CCC3(CCN(C(=O)Nc4cccc(F)c4)CC3)CC2)cc1	-60%[inhibitor]
84	COc1cc(-c2noc(C)c2C#CCCN2C(=O)c3ccccc3C2=O)cc(OC)c1OC	21%
85	O=C1CCN(Cc2ccc(Br)cc2)CCN1[C@H](CO)c1ccccc1	-66%[inhibitor]
86	COc1ccccc1-c1cncnc1Nc1ccc(F)cc1	19%
87	Cc1c(C(=O)NCC(C)(C)N2CCOCC2)cnn1-c1ncc2c(n1)-c1ccccc1CC2	16%
88	COCCCNC(=O)c1cnn(-c2ncc3c(n2)-c2ccccc2CCC3)c1C	-3%
89	O=c1c(-c2ccc(Cl)cc2)nc2cnc(N3CCOCC3)nc2n1-c1ccccc1	1%
90	NC1(C(=O)O)CCCC1	?

Values by screen from above:
EPAC1 ag val for nos. 25–35, in order: 5%, -11%, 6%, 17%, -5%, 22%, 10%, -4%, -4%, -6%, 5%

Sorted by the number under EPAC1 ag val (falling): some entries from above
cpd	molecule	EPAC1 ag val
46	COc1cccc(Nc2ncc3ncc(=O)n(Cc4cccs4)c3n2)c1	112µM*
56	COc1ccc(OC)c(/C=C/c2nc3ccccc3nc2C)c1	100µM*
38	FC(F)OC(Cl)C(F)(F)F (stereo unspecified)	35µM*

(more compounds)
cpd	molecule	EPAC1 ag val
91	COc1cc2c(c(OC)c1OC)-c1ccc(OC)c(=O)cc1C(NC(C)=O)CC2 (stereo unspecified)	0%
92	Cc1nc(NCc2ccc3nsnc3c2)sc1-c1ccn(C)n1	18%
93	COc1ccc(-c2nc3cnc(N4CCN(C)CC4)nc3n(-c3ccc(OC)cc3)c2=O)cc1	-48%[inhibitor]
94	NCCO/C=C/[C@H](N)C(=O)O	-11%
95	C[C@@H]1CC[C@H]2[C@H](C)[C@H]3CC[C@H]4C5[C@@H](O)CC6=CC(=O)CC[C@]6(C)[C@H]5C[C@H]4C3C(=O)N2C1 (stereo partly specified)	14%
96	CN(CC[C@@H](Oc1ccc(C(F)(F)F)cc1)c1ccccc1)CC(=O)O	-11%
97	Cc1noc(C)c1-c1cc(NC2CC2)ncn1	-4%
98	COc1ccc(CN2CCCC(c3nc(C)ncc3-c3ccc(F)cc3)C2)c(OC)c1OC (stereo unspecified)	10%
99	CCCCCCCCCCCCCCCC(=O)NC(C)C	-10%
100	CCCCC/C=C\C/C=C\CCCCCCCC(=O)NC(C)c1ccccc1 (stereo unspecified)	6%
101	CC(=O)Oc1ccc2c(c1)CCC1C2CC[C@@]2(C)C1CC(OC(C)=O)C2OC(C)=O (stereo partly specified)	?
102	COc1ccccc1CNc1ccnc(-c2cccc(NS(C)(=O)=O)c2)n1	23%
103	Oc1cc(-c2nc3ccccc3s2)cc2c1OCCN(Cc1cccn1-c1ccccn1)C2	12%
104	CCn1c(=O)[nH]c2cc(Cl)c(Cl)cc21	-4%&-18%
105	CS(=O)(=O)c1ccc([C@@H](O)[C@@H](CF)NC(=O)C(Cl)Cl)cc1	-18%
106	CN(C)CCCN1c2ccccc2C(C)(C)c2ccccc21	-26%
107	COc1ccc(/C=C/C(=O)c2ccc(O)cc2O)cc1OC	22%
108	COc1ccc(-c2nc3cnc(N4CCNCC4)nc3n(-c3ccc(OC)cc3)c2=O)cc1	7%
109	CCOC(=S)SSC(=S)OCC	0%
110	C[C@]12CCC3c4ccc(O)cc4CCC3C1CCC2OC(=O)CCC1CCCC1 (stereo partly specified)	-22%
111	Cc1c(CN2CCOc3ccc(C(C)(O)COc4ccccc4)cc3C2)cnn1C (stereo unspecified)	3%
112	CN(C)CCC=C1c2ccccc2CCc2ccccc21	?
113	O=C(c1ccc(F)c(F)c1)N1CCOc2ccc(CN3CCN(Cc4ccccn4)CC3)cc2C1	5%
114	COc1ccccc1-c1ccnc(-n2ncc(C(=O)N[C@H]3CCCCNC3=O)c2C2CC2)n1	-1%
